# E coli growth: E. coli growth inhibition; OD600 absorbance (test concentration not listed); Escherichia coli growth, OD600, 23 h; active compounds read low; 0.21% of 330,000 active; AID 1053175;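 active = OD600 absorbance below the run mean of sample wells minus 3.6 SD, in any replicate, cut at about 0.56 in these data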;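 also: stock transfer was 300 nL into about 60 µL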
# * marks the source's active call; other numbers are inactive results; & = joins results of further samples.
SMILES,E coli growth
Cc1cccc(C(=O)ON=C2CC3CCC2(C)C3(C)C)c1 (stereo unspecified),0.677
CCOC(=O)C1C2COc3ccc(Br)cc3C2N2C(=O)N(c3ccccc3)C(=O)[C@@]12C (stereo partly specified),0.645&0.659
Cc1ccc(S(=O)(=O)NN=Cc2ccccc2O)cc1[N+](=O)[O-],0.695
O=C(NN=C/C(Br)=C/c1ccccc1)c1cnccn1,0.652
O=C(NN=Cc1cccc(Cl)c1)c1c(O)c2c([nH]c1=O)CCCC2,0.71
CCN1CCN(C(=O)C=Cc2ccccc2[N+](=O)[O-])CC1,0.686
O=C(O)c1ccccc1C=NNC(=O)C1CCCCC1,0.693
Cc1cc(C)nc(N=C(NC(=O)Nc2ccc(Cl)c(Cl)c2)Nc2ccccc2)n1,0.704
CC(Cn1nnc2ccccc21)=NNC(=O)c1ccc(Br)cc1,0.649
COC(=O)CC1c2cc(F)ccc2S(=O)(=O)N1c1ccccc1 (stereo unspecified),0.65
CCCOC(=O)C1C2C=C[C@]3(CN(C(C)c4ccc(OC)cc4)C(=O)C13)O2 (stereo partly specified),0.696
S=C1NCC(CC2CCCCC2)N1CCc1cccc2ccccc12 (stereo unspecified),0.716
CNC(=O)N(O)C1N(N=Cc2ccc(N(C)C)cc2)C(=S)SC1(C)C (stereo unspecified),0.651
COC(=O)[C@@]1(Cc2ccc(OC)cc2)C2c3cc(C(=O)N4CCCC4)n(CC(O)CO)c3CC2CN1C(=O)c1ccccc1 (stereo partly specified),0.644
CSc1ccccc1NC(=S)NN=Cc1cccn1Cc1cccc(C)c1,0.724
COc1cc(C=NN2C(=O)CSC2=S)cc(Br)c1O,0.681
O=c1c(=Cc2ccccn2)sc2n1CN(c1ccccc1)CN=2,0.679
CCN(CC)C(=O)C(=Cc1cccc([N+](=O)[O-])c1)NC(=O)c1ccco1,0.707
O=C(CNC(=O)c1cccc(Br)c1)NN=Cc1cn[nH]c1-c1ccccc1,0.695
CC(C)n1cc(C=C2NC(=O)NC2=O)c2ccccc21,0.728
Cc1ccccc1NCC(=O)NN=Cc1ccc2c(c1)OCO2,0.69
C[C@]12CCC3c4ccc(O)cc4C(=O)CC3C1CCC2O (stereo partly specified),0.668
Cc1ccc([N+](=O)[O-])c(C(=O)NN=Cc2cccs2)c1,0.657
C#Cc1ccc(C2C=C(C(=O)NCc3ccccc3)OC(OCCCCO)C2)cc1 (stereo unspecified),0.704
CN(C)c1cccc(C(=O)NN=Cc2ccccc2F)c1,0.699
SMILES,E coli growth
CC(C)NC(=O)Nc1ccc2c(c1)C(=O)N(C(C)CO)CC(C)C(CN(C)S(=O)(=O)c1ccccc1)O2 (stereo unspecified),0.664
O=C(NN=Cc1cn(-c2ccccc2)nc1-c1ccccc1)c1ccc2c(c1)OCO2,0.743
COc1cccc(C=NNC(=O)c2cc(OCC(F)(F)F)ccc2OCC(F)(F)F)c1,0.691
O=C(NN=Cc1ccc[nH]1)c1ccc(Cl)cc1,0.692
Cc1cccc(C=NNC(=O)NC2CCCCC2)c1,0.689
O=C(NN=Cc1cc(Cl)cc([N+](=O)[O-])c1O)c1cccc(S(=O)(=O)N2CCOCC2)c1,0.67
Cc1ccc(Cn2c(NN=Cc3ccncc3)nc3c2c(=O)n(C)c(=O)n3C)cc1,0.708
CC(=O)NCc1ccc(S(=O)(=O)NN=Cc2ccc(Br)cc2)cc1,0.66
Cc1cccc(N=Cc2c(O)cc(C)oc2=O)n1,0.697
O=C(COc1ccc(Cl)cc1)NN=CCCc1ccccc1,0.692
O=C(NCCc1ccccc1)C1CC=CC2CCN(Cc3ccc(Cl)c(Cl)c3)C(=O)C21 (stereo unspecified),0.66
O=C(NN=Cc1cccc(Br)c1)c1ccc(N2CCCC2=O)cc1,0.634
O=C(NN=Cc1ccccc1OCc1ccccc1)c1cccnc1,0.708
O=C(NN=Cc1ccc([N+](=O)[O-])o1)C(O)c1ccccc1 (stereo unspecified),0.445*
Cn1cc(C=Nn2cnc3scc(-c4ccc(Cl)cc4)c3c2=O)c2ccccc21,0.716
Clc1ccc(CN2CCC3C=CCc4cccc(c43)C2)cc1 (stereo unspecified),0.608
CCOc1ccc(C=NNC(=O)c2ccc(Cn3cc(Br)cn3)o2)cc1,0.671
O=C(NN=Cc1ccc(-c2ccccc2Cl)o1)c1ccccc1,0.707
O=[N+]([O-])c1ccccc1C=NNc1nccnc1Cl,0.69
CCc1ccc(C=NNC(=O)c2nnn(-c3nonc3N)c2CN2CCc3ccccc32)cc1,0.72
COc1cc(C=N/N=C2/NC(=O)C(CC(=O)O)S2)ccc1OCc1ccc(Cl)cc1 (stereo unspecified),0.656
CCC(C)C1NC(=O)c2cc([N+](=O)[O-])cc(F)c2NCCCCC(C(N)=O)NC(=O)C(CCCCN)NC1=O (stereo unspecified),0.682
CC(=NNc1ccccc1)c1cccc(N)c1,0.582
C#CCOCCOCCOCCNc1nc(N2CCN(C(=O)C(Cc3cc4ccccc4[nH]3)n3cc(C(N)C(C)CC)nn3)CC2)nc(N2CCN(C(=O)C(C(C)CC)n3cc(C(N)CO)nn3)CC2)n1 (stereo unspecified),0.688
Br/C(C=NNc1nc(N2CCOCC2)nc(N2CCOCC2)n1)=C\c1ccccc1,0.69
SMILES,E coli growth
Fc1ccccc1C=Nn1c(-c2cccnc2)n[nH]c1=S,0.668
CC(=O)N(N=Cc1ccc([N+](=O)[O-])o1)c1nc2ccccc2c(=O)n1-c1ccccc1,0.66
CC(C)(C)S(=O)(=O)C(C#N)=NNc1ccc(S(C)(=O)=O)cc1,0.686
CC(=O)Nc1ccccc1NC(=O)CC(C)=NNC(=O)c1ccncc1,0.653
O=C1C2C3c4ccccc4C(c4ccccc43)C2C(=O)N1N=Cc1cccc(O)c1 (stereo unspecified),0.636
NC(=O)CCC1NC(=O)C2CCCN2C(=O)c2cc([N+](=O)[O-])cc(I)c2NCCCC(C(=O)NC(CC(=O)O)C(N)=O)NC1=O (stereo unspecified),0.643
Cc1cccc(C)c1OCC(=O)NN=Cc1cccn1C,0.694
CCCC1CCCO[C@@](C(=O)NCc2cc(C)n(C)n2)(C(F)(F)F)C1 (stereo partly specified),0.692
COc1ccc(NS(=O)(=O)c2cccc(C(=O)NN=Cc3ccc(O)cc3)c2)cc1,0.69
O=C(Nc1ccccc1)C1=CC(c2csc3ccccc23)CC(OCCCCO)O1 (stereo unspecified),0.632
COc1ccc(CNC(=O)CC(C)=NNC(=O)C(c2ccccc2)c2ccccc2)cc1,0.721
Cn1cccc1C=NNC(=O)C12CC3CC(CC(C3)C1)C2,0.735
Cc1cc(C)n2nc(C(=O)NN=Cc3cccc(Cl)c3)nc2n1,0.581
O=C(NN=Cc1ccc([N+](=O)[O-])o1)c1cn(-c2ccccc2)nc1-c1ccccc1,0.684
O=C(NN=Cc1cccc([N+](=O)[O-])c1)c1cccc2cc[nH]c12,0.74
CC(=O)NC1CCCN(O)C(=O)C=C(C)CCOC(=O)C(NC(C)=O)CCCN(O)C(=O)C=C(C)CCOC(=O)C(NC(C)=O)CCCN(O)C(=O)C=C(C)CCOC1=O (stereo unspecified),0.619
CC1(C)C2CC=C(C=NNC(=O)c3ccccc3O)C1C2 (stereo unspecified),0.724
Cc1[nH]n(-c2ccccc2)c(=O)c1C=NNC(=O)c1cccc(F)c1,0.659
COc1ccc(Cl)cc1NC(=O)CC(C)=NNC(=O)c1ccccc1[N+](=O)[O-],0.603
CCOC(=O)C(=O)NN=Cc1ccco1,0.699
COc1ccc(C(=O)NN=Cc2ccc(OC(=O)c3cccc4ccccc34)c([N+](=O)[O-])c2)cc1,0.722
CCN(CC)CC(=O)Nc1ccc(C(C)=NNC2=NCCN2)cc1,0.645
Cc1ccc(NC(=O)COc2ccc(C=NNC(=O)c3cccnc3)cc2)cc1C,0.647
CC(C)c1ccc(C=NNC(=O)c2ccc(-n3cnnn3)cc2)cc1,0.689
Cc1ccc(C=NNC(=O)c2cc(-c3ccc(C)o3)[nH]n2)cc1,0.638
SMILES,E coli growth
N=C1/C(=C/c2cccn2-c2cccc([N+](=O)[O-])c2)C(=O)N=C2SC=CN12,0.685
CC1COC(=O)CCC=CCC(CC(=O)N(CCO)Cc2ccccc2)C(=O)N1 (stereo unspecified),0.7
COc1cc(C=NNc2nncc3ccccc23)cc(OC)c1OC,0.667
O=C(NCCN1CCOCC1)C1(C(F)(F)F)CC(=CCc2ccccc2)CCCO1 (stereo unspecified),0.661
COc1cc(C=NNC(=O)c2ccc(CSc3nncn3C)cc2)ccc1OCC(=O)N1CC(C)OC(C)C1 (stereo unspecified),0.671
COc1ccc(Br)cc1C=NN1C(=O)CSC1=S,0.647
COc1ccc(N(CC(=O)NN=C(C)c2cccs2)S(=O)(=O)c2ccccc2)cc1Cl,0.714
O=C(NN=Cc1cc(Br)cc(Br)c1O)c1cccc(N2CCCC2=O)c1,0.668
CC(O)C1CNC(=O)C(=O)N1CC1(c2ccccc2)CC1 (stereo unspecified),0.656
S=C(NCCc1ccccc1)NN=Cc1cccs1,0.627
CCNC(=O)COC(=O)C=Cc1cccc([N+](=O)[O-])c1,0.692
CC(=NOC(=O)c1cccc(Cl)c1)c1nccs1,0.702
Cc1ccc(C=NNC(=O)c2cc(C)oc2C)o1,0.709
Cc1ccc(C=NN(C)C2=NS(=O)(=O)c3ccccc32)cc1,0.648
Oc1ccc(C=NN=C(c2ccccc2)c2ccccc2)c(O)c1O,0.56
CC(=NNC(=O)c1nn(C)cc1Br)c1cccc(NC(=O)c2ccncc2)c1,0.707
CC(NC(=O)C(=O)NN=Cc1ccccc1)c1ccccc1 (stereo unspecified),0.701
CC(=NNC(=O)c1ccccc1C)c1ccc(N2CCOCC2)cc1,0.692
O=C(NN=Cc1cccnc1)c1ccc(Cl)s1,0.716
COc1ccc(C=NNC(=O)c2cccnc2)cc1CN1CCN(c2ccc(F)cc2)CC1,0.652
O=C(O)c1ccc(C=NN2CCN(C3c4ccccc4-c4ccccc43)CC2)cc1,0.709
CC(=NNS(=O)(=O)c1ccc(C)c([N+](=O)[O-])c1)c1cc2ccccc2o1,0.689
CCOc1ccc(C=NNc2ccccn2)cc1OC,0.697
CC1=CC(=O)C=C(C)C1=NOC(=O)C=Cc1ccccc1,0.709
C#CCOCCOCCOCCNc1nc(N2CCN(C(=O)C(CCCCN)n3cc(CC(C)O)nn3)CC2)nc(N2CCN(C(=O)C(C(C)CC)n3cc(CCCCN)nn3)CC2)n1 (stereo unspecified),0.697

# Reformatted tab-delimited: 16 of the compounds above
structure	E coli growth
S=C(NCCc1ccccc1)NN=Cc1cccs1	0.627
CCNC(=O)COC(=O)C=Cc1cccc([N+](=O)[O-])c1	0.692
CC(=NOC(=O)c1cccc(Cl)c1)c1nccs1	0.702
Cc1ccc(C=NNC(=O)c2cc(C)oc2C)o1	0.709
Cc1ccc(C=NN(C)C2=NS(=O)(=O)c3ccccc32)cc1	0.648
Oc1ccc(C=NN=C(c2ccccc2)c2ccccc2)c(O)c1O	0.56
CC(=NNC(=O)c1nn(C)cc1Br)c1cccc(NC(=O)c2ccncc2)c1	0.707
CC(NC(=O)C(=O)NN=Cc1ccccc1)c1ccccc1 (stereo unspecified)	0.701
CC(=NNC(=O)c1ccccc1C)c1ccc(N2CCOCC2)cc1	0.692
O=C(NN=Cc1cccnc1)c1ccc(Cl)s1	0.716
COc1ccc(C=NNC(=O)c2cccnc2)cc1CN1CCN(c2ccc(F)cc2)CC1	0.652
O=C(O)c1ccc(C=NN2CCN(C3c4ccccc4-c4ccccc43)CC2)cc1	0.709
CC(=NNS(=O)(=O)c1ccc(C)c([N+](=O)[O-])c1)c1cc2ccccc2o1	0.689
CCOc1ccc(C=NNc2ccccn2)cc1OC	0.697
CC1=CC(=O)C=C(C)C1=NOC(=O)C=Cc1ccccc1	0.709
C#CCOCCOCCOCCNc1nc(N2CCN(C(=O)C(CCCCN)n3cc(CC(C)O)nn3)CC2)nc(N2CCN(C(=O)C(C(C)CC)n3cc(CCCCN)nn3)CC2)n1 (stereo unspecified)	0.697

# Following part
SMILES,E coli growth
COc1ccc(C(C)=Nn2cnnc2)cc1,0.787
COc1ccc(C=Nn2cncn2)cc1Cn1nc(C)c([N+](=O)[O-])c1C,0.677
COc1cccc(NC(=S)NN=C2CC(C)(C)Oc3ccc(O)cc32)c1,0.72
COc1ccc([N+]([O-])=Cc2ccco2)cc1,0.667
O=[N+]([O-])c1cccc(C(=NN=Cc2ccccc2Br)C23CN4CN(CN(C4)C2)C3)c1,0.702
Oc1ccc(C=Nn2c(COc3ccccc3)n[nH]c2=S)c(O)c1,0.668
O=C(CSc1ncccn1)NN=Cc1cccs1,0.663
CC(CCN1CCc2nc(-c3ccccc3)c(-c3ccccc3)cc2C1)=NOCC(C)C(OCc1ccccc1)C(C)C (stereo unspecified),0.695
COc1ccccc1/C=C/C=Nn1c(-c2ccc(C)cc2)n[nH]c1=S,0.691
CCC(C)C(NC(=O)OC1C(=O)c2cc(OC)ccc2OC1c1ccc(OC)c(Br)c1)C(=O)OC (stereo unspecified),0.692
CC1OC(OC2C(CO)OC(Oc3c(-c4ccc(O)cc4)oc4cc(O)cc(O)c4c3=O)C(O)C2O)C(O)C(O)C1O (stereo unspecified),0.628
COc1cccc(C=NNC(=O)C(C)Sc2ccccc2)c1 (stereo unspecified),0.689
COC(=O)C1=C(C)N(CC2CC2)C(=NCc2cccc(Cl)c2)NC1c1ccccc1 (stereo unspecified),0.708
Cc1ccc(S(=O)(=O)N=c2sccn2C)cc1,0.715
CC(=NNc1ccc(C(=O)O)cc1)c1ccc(O)c(O)c1O,0.65
COc1cc(C=NNC(=O)Nc2ccccc2)ccc1OCCOc1ccccc1C,0.746
COc1ccc(C=NNC(=O)Nc2nonc2N)cc1,0.734
COc1cccc(C=NNC(=O)Cn2cnc3c2c(=O)n(C)c(=O)n3C)c1,0.679
COc1ccccc1NCC(=O)NN=Cc1cccnc1,0.675
COc1ccc(C=NNC(=O)c2ccc(N)cc2)cc1Cn1cc([N+](=O)[O-])cn1,0.68
COc1ccc(C2C3C(=O)N(C(C)(C)C)C(=O)C3[C@]3(Cc4ccccc4)C(=O)N(c4cccc(F)c4)C(=O)N23)cc1 (stereo partly specified),0.678
Cc1ccc(-c2nn(Cc3ccccc3)cc2C=CC(=O)O)cc1,0.706
CCCc1c(C(=O)NN=Cc2cccnc2)nnn1-c1nonc1N,0.649
Cc1ccc(NC(=O)ON=Cc2ccc(F)cc2)cc1,0.681

# Only part of the results is shown. The share of hits here may be higher or lower than overall.
